Assay outcomes from PubChem BioAssay.
hNpr1 antagonist = antagonists of human natriuretic peptide receptor Npr1; P16066; HEK293 hNpr1 GloSensor cGMP, ANP-stimulated luminescence; Potency, µM (titrated, usually from 46.3 µM), for the others: top-dose activity change, negative = inhibition, usual class: inhibitors; 76,000 tested, 1.6% active; AID 1347048; active = well fitted inhibition curve with a large enough effect; inconclusive = small, poorly fitted or top-dose-only effect; inactive = no such curve, though single readings can be large or run the other way;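 further: nearly all actives have a fitted effect of over 60% in size; nearly all hits also lower the signal before the agonist is added; a reference antagonist and vehicle were the controls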
Target sequence (P16066 whole entry, looked up): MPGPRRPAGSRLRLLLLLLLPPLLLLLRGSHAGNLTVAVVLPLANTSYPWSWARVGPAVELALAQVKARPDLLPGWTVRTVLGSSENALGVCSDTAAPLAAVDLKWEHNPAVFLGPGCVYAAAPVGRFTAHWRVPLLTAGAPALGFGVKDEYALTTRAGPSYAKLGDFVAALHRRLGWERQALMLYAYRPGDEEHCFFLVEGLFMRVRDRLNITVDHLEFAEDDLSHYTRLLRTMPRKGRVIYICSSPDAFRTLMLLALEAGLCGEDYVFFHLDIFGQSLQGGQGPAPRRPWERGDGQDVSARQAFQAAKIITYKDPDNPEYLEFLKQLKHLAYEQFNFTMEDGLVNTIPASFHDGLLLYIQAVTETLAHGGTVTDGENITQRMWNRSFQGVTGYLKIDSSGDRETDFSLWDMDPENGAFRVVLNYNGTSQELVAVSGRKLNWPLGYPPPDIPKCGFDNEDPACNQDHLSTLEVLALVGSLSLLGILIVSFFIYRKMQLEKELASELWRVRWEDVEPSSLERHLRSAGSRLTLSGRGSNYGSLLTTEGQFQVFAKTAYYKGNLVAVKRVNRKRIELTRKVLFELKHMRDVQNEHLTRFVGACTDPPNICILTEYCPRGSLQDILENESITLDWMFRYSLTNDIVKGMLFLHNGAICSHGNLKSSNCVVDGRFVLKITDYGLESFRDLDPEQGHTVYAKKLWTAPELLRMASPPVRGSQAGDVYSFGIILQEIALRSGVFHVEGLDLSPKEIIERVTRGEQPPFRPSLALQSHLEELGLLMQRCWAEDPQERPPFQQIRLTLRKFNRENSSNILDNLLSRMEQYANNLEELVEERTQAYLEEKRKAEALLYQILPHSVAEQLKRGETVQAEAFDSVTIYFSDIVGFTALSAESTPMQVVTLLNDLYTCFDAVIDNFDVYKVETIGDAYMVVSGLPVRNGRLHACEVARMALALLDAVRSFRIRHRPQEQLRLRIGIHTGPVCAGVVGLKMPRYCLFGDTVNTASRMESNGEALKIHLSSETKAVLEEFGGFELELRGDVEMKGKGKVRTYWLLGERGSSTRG
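Compound pre-incubated 30 min at room temperature on GloSensor-loaded HEK293 cells stably carrying hNpr1 and the pGS-40F cGMP biosensor. Stimulation uses hNppA at 0.1 nM final; luminescence is taken at baseline and 20 min post-agonist.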
* = called active by the depositor; ? = inconclusive; [ ] = remark or other dose. On the % scale 0 is the no-effect control and ±100 the full control effect; potency means the concentration at half of the fitted maximal effect.

hNpr1 antagonist	structure
-26.1%	N#Cc1cccc(C(=O)N2CCC3(CC2)NC(=O)N(Cc2ccc(F)cc2)C3=O)c1
3.3%[70.6 µM]	CN1CCC(N2CCOC[C@H](OCC(=O)N(C)C)C2)CC1
3.2%[70.6 µM]	CN1CCN(Cc2nc(C3(O)CCN(C(=O)c4ccc(F)cc4)CC3)cs2)CC1
12.1%	COc1ccc(C2Cn3nnc(-c4noc(-c5ccccc5OC)n4)c3CO2)cc1 (stereo unspecified)
-3.3%	CC(=O)Nc1ccc(CNC2(Cc3cc(CN4CCN(c5ccccc5)CC4)on3)COC2)cc1
?	O=C(N[C@H]1CO[C@H]2[C@@H]1OC[C@@H]2Nc1nccc(-c2cccs2)n1)C1CCCCC1
-22.6%	COc1ccc(CNC(=O)c2cc3n(n2)CC(c2ccc4c(c2)OCO4)OC3)cc1 (stereo unspecified)
-2.9%	CCO[C@H]1CN(C(=O)c2cccc(-c3cccc(F)c3)c2)C[C@@H]1O

Next part (2 carried over from the part before).
hNpr1 antagonist	structure
-22.6%	COc1ccc(CNC(=O)c2cc3n(n2)CC(c2ccc4c(c2)OCO4)OC3)cc1 (stereo unspecified)
-2.9%	CCO[C@H]1CN(C(=O)c2cccc(-c3cccc(F)c3)c2)C[C@@H]1O
0.2%	Cc1cn2nc(C(=O)N3CCC(NC(=O)Cc4ccsc4)CC3)cc2c(=O)[nH]1
0.9%	CCc1nncn1C1CCN(C(=O)c2cc(C)cc(C)c2)CC1
10µM*	O=C1N[C@H](CC(=O)N2CCC(Cc3ccccc3)CC2)C(=O)Nc2ccccc21
4.8%	COc1ccccc1CNC(=O)C1CCCN(Cc2cccnc2)CCC(=O)NCC1 (stereo unspecified)
-1.1%[70.6 µM]	COc1cc(Cl)ccc1-c1ccc(COc2ccc3c(cnn3CCC(=O)O)c2)cc1
2.9%	Cn1cccc1C(=O)C(=O)N1CCC(O)(CN2CCOCC2)C(C)(C)C1 (stereo unspecified)
1.8%	CC(=O)N[C@H]1CCN(C(=O)C[C@@H]2[C@H](O)CCC3[C@](C)(CO)[C@H](OC(=O)Nc4cccc(F)c4)CC[C@]32C)C1 (stereo partly specified)
-12.8%	Cc1ccc(NC(=O)N2CCCC(Cn3c(C)nc4cccnc43)C2)cc1F (stereo unspecified)
-1.0%	N#Cc1cccc(CN2CC[C@H]3C(=O)NCCCCCCN(Cc4ccncc4)[C@@H]3C2)c1
13.1%	Cc1cc(C(=O)N2CCC(N3C(=O)C4(CCCC4)C3c3ccccc3)CC2)nn1C (stereo unspecified)
5.9%	COC[C@@H]1CN(C(=O)c2cc3ccc(OC)cc3[nH]2)C[C@H]1C(N)=O
?	Cc1ccc(NC(=O)c2cc3n(n2)CC(c2ccc(Cl)cc2)OC3)cc1 (stereo unspecified)
6.5%	CCOc1cc(=O)n2c(c1C(=O)NCC1CCCCC1)CCCCC2
3.5%	O=C(NCc1ccc(F)cc1F)c1ccc(N2CC3CC(C2)[C@H]2CCCC(=O)N2C3)nc1 (stereo partly specified)
-8.9%	COc1ccc(-c2cc3c(=O)n(CCNC(=O)c4ccc(F)cc4)ccn3n2)cc1
-3.0%[70.6 µM]	CC(C)c1ccc(C(=O)NCc2ccnc3[nH]ccc23)cc1

5 of these compounds, reformatted:
SMILES | hNpr1 antagonist
CC(C)c1ccc(C(=O)NCc2ccnc3[nH]ccc23)cc1 | -3.0%[70.6 µM]
CC(=O)Nc1ccc(CNC2(Cc3cc(CN4CCN(c5ccccc5)CC4)on3)COC2)cc1 | -3.3%
COc1ccc(C2Cn3nnc(-c4noc(-c5ccccc5OC)n4)c3CO2)cc1 (stereo unspecified) | 12.1%
COc1cc(Cl)ccc1-c1ccc(COc2ccc3c(cnn3CCC(=O)O)c2)cc1 | -1.1%[70.6 µM]
CCc1nncn1C1CCN(C(=O)c2cc(C)cc(C)c2)CC1 | 0.9%

Next entries follow.
hNpr1 antagonist	structure
-5.0%	CCc1[nH]c2c(CNC(=O)CC3C(=O)NCCN3C(C)C)cc(C)cc2c1C (stereo unspecified)
-2.0%	Cn1cc2c3c(cccc31)CN(C(=O)CC(C)(C)C)CC2
-11.5%	O=C(CCc1ccccc1Cl)N1CCn2nc(Cc3ccccc3)cc2C1
3.4%	Cc1ccc(NC(=O)N[C@H]2C[C@@](O)(C(=O)N[C@H](Cc3ccccc3)C(N)=O)C[C@@H](O)[C@@H]2O)cc1
3.1%	COc1ccc(CCNC(=O)C2CC(=O)N(c3n[nH]c4cccc(F)c34)C2)cc1 (stereo unspecified)
1.5%	Cc1ccc(NC(=O)CN2C(=O)NC3(CCCCC3)C2=O)cc1Cl
1.0%	O=C([C@@H]1C[C@H](F)CN1C(=O)c1cccc(F)c1)N1CCCCC1
14.1µM*	Cc1nn2c(c1-c1ccccc1-c1ccccc1)N(Cc1ccccc1)CCC2
-0.5%	COCCn1nnnc1C1CC2(CCOCC2)C(=O)N1CCc1ccc(Cl)cc1 (stereo unspecified)
-0.6%	CCn1ccc(C(=O)N2CC[C@H]3C(=O)NCCCCCCN(Cc4ccncc4)[C@@H]3C2)n1
-13.0%	O=C1CC(c2ccccc2)N(C(=O)C2CC2)CCCN(C(=O)c2ccco2)CCN1 (stereo unspecified)
1.9%	CCCC1(CO)CCCN(CCc2cnn(C)c2)C1 (stereo unspecified)
-13.4%	COC(=O)C1=C(C)N=C2SC=C(CC(=O)NCCCN3CCCC3=O)N2C1c1ccccc1 (stereo unspecified)
0.2%	CN1CCN(S(=O)(=O)c2cc(Br)cc(C(=O)O)c2)CC1
1.8%	O=C1[C@H]2CN(Cc3ccc(F)cc3)C[C@H]2C(=O)N1Cc1ccc2c(c1)OCO2
3.4%	COc1cc(C)sc1C(=O)N1CCC2(CC1)OCCCC2O (stereo unspecified)
-2.9%	CN1C(=O)c2cccn2CC1CNC(=O)c1cc(-c2ccc(F)cc2)n[nH]1 (stereo unspecified)
-18.2%	CC(CCc1ccccc1)NC(=O)c1ccc(CN2C(=O)NC3(CCOCC3)C2=O)cc1 (stereo unspecified)
-20.9%	CCN(C)C(=O)CCc1c(C)nn(-c2cccc(C)c2)c1Oc1ccccc1
-16.0%	CS(=O)(=O)N1CCC(CC(=O)Nc2cccc(F)c2)C1 (stereo unspecified)
0.7%	O=C(NC1C[C@H]2CC[C@@H](C1)N2S(=O)(=O)c1ccc2c(c1)OCCO2)c1ccc(F)cc1 (stereo partly specified)
-2.7%	CN(C)Cc1cn(C[C@H]2C[C@@H](NC(=O)c3ccc4c(c3)OCO4)[C@H](O)[C@@H]2O)nn1
8.6%	Cc1ccc(-c2nnc(C3CN(C(=O)c4ccsc4)CC34CCOCC4)o2)cc1 (stereo unspecified)
1.3%	CC(C)CCC(=O)N1CC(c2nnc(-c3ccncc3)o2)C2(CCOCC2)C1 (stereo unspecified)
-0.4%	COc1ccc(N2CC(C(=O)N3CCC(C(=O)NCCc4ccc(Cl)cc4)C3)NC2=O)cc1 (stereo unspecified)
3.7%	CC(C)CN(Cc1nnc2cc(-c3nc(-c4ccccc4)no3)ccn12)CC(C)C
0.4%	CN(C(=O)c1csc(Cc2ccccc2)n1)C1CCCN(CCc2ccccc2)C1 (stereo unspecified)
-0.1%	CN1CCCN(C[C@@H]2CN(C(=O)c3cccn3C3CC3)C[C@@H]2CO)CC1
-11.8%	Cc1ccc(-c2noc([C@@H]3CCCN3C(=O)c3cc(Cl)ccc3F)n2)cc1
-18.2%	Cc1cn2nc(C(=O)NCc3ccccc3F)cc2c(N2CCSCC2)n1
?	CC(C)c1nnnn1[C@H]1CO[C@H]2[C@@H]1OC[C@H]2OC(=O)Nc1ccc(Oc2ccccc2)cc1
12.6µM*	Cc1ccc(OCC(=O)N2CCC(Cc3nc(-c4ccccc4)no3)CC2)cc1
-1.5%	Cc1nocc1C(=O)N1C[C@@H](COCC2CC2)[C@H](c2ccccn2)C1
2.3%	CCOc1cccc(CNC(=O)c2noc(-c3ccc(F)cc3)n2)c1
7.7%	O=C1CN(C(=O)c2cccc(-n3cnnc3)c2)CCN1Cc1cccc(F)c1
-3.5%	CN(C(=O)CN1C(=O)NC2(CCC(C(C)(C)C)CC2)C1=O)c1ccccc1 (stereo unspecified)
?	CC1=C(C(=O)OC(C)C)C(c2ccc(C)cc2)CC(=O)N1Cc1cccc(C#N)c1 (stereo unspecified)
-24.1%	Cc1ccc(C)c(C(=O)N2CCOC(CCCc3ccccc3)C2)c1 (stereo unspecified)
5.8%	CCC(C)NC(=O)C1(c2ccc(NS(C)(=O)=O)cc2)CCCCC1 (stereo unspecified)
-3.4%	CCc1cccc2c(C(CC(=O)NC(C)C(C)C)c3ccc(OC)c(OC)c3)c[nH]c12 (stereo unspecified)
-4.8%	O=C(CCc1ccccc1)N1CCCC(CN2CCCC2)CC1 (stereo unspecified)
1.7%	Cc1ccc(CC(=O)N2CCN(c3cc(-c4ccccc4)[nH]n3)CC2)cc1
-1.1%	CN(C)[C@@H]1CN(C(=O)CCc2ccccc2)C[C@H]1CO
-6.6%	Cc1noc(-c2ccccc2OC2CCN(C(=O)CC3CCCCC3)C2)n1 (stereo unspecified)
-6.8%	Cc1nn(C(=O)CCCC(=O)N2CCCC2c2nc(C3CCOCC3)no2)c2ccccc12 (stereo unspecified)
6.1%	CN1CCCCCC(O)c2cc(C(=O)N3CCOCC3)ccc21 (stereo unspecified)
2.3%	O=C(c1ccoc1)N1CCC(N2C(=O)C(O)C23CCCCC3)CC1 (stereo unspecified)
-17.6%	COc1ccc(N2CCN(C(=O)Cn3c(-c4cnccn4)nc(C)c(C)c3=O)CC2)cc1
-0.7%	CC1CCC(NC(=O)C2CCN(C(=O)c3ncn4c3COC(c3ccc(Cl)cc3)C4)CC2)CC1 (stereo unspecified)
11.5%[70.6 µM]	COc1ccc(-c2nnc3n2CCN(C(=O)C(C)(C)C)C3)cc1
1.8%	CCC1(C(=O)NCCCN2CCc3ccccc3C2)CCCCC(=O)N1 (stereo unspecified)
4.9%	Cc1ccc(-c2ncc(NC(=O)c3ccc(F)c(F)c3)cn2)cc1
-12.1%[70.6 µM]	Cc1ccncc1-c1c(C)nn2c1N(Cc1ccc(C(=O)O)cc1)CCC2
5.0%	Cn1cnnc1CC1CCN(C(=O)Nc2ccc3c(c2)OCCO3)C1 (stereo unspecified)
4.5%	CC(=O)N1CCC2(CC1)C(=NC1CCCC1)NC(=O)N2c1cc(F)cc(F)c1
17.9%	O=C(c1cccnc1)N1CCC(c2nc(C3CCOCC3)no2)C1 (stereo unspecified)

(more compounds)
hNpr1 antagonist	structure
-10.1%	COC[C@@H]1CN(C(=O)c2ccc(C#N)cc2)C[C@H]1c1nc(C2CC2)no1
8.8%	Cc1ccc(-n2c(C3CCN(C(=O)c4ccc(C)c(C)c4)CC3)n[nH]c2=O)cc1
-1.7%	Cc1noc([C@@H]2CN(C(=O)c3ccc4ncccc4c3)C[C@H]2CO)n1
-0.2%	COC(=O)c1c(NC(=O)c2ccco2)c2cc(NC(C)CCn3cccn3)cnc2n1C (stereo unspecified)
5.4%	CNC(=O)[C@@H]1CN(C(=O)CCc2ccccc2)C[C@H]1COC
-0.7%[70.6 µM]	CC(=O)N[C@H]1CC[C@]2(C)CC[C@@H](C(C)C(=O)NC3CCCCC3)[C@H](O)[C@H]2[C@@H]1C (stereo partly specified)
-14.2%[70.6 µM]	O=C(NCCc1ccccc1)C1=NO[C@@H]2CN(Cc3ccc(F)cc3)C[C@H]12
5.8%	Cn1ncc2c(N[C@H]3C[C@H]4C(=O)NCC(=O)N4C3)nc(C3CCCC3)nc21

Reprinted from the part before: 2 compounds, then new ones.
hNpr1 antagonist	structure
-14.2%[70.6 µM]	O=C(NCCc1ccccc1)C1=NO[C@@H]2CN(Cc3ccc(F)cc3)C[C@H]12
5.8%	Cn1ncc2c(N[C@H]3C[C@H]4C(=O)NCC(=O)N4C3)nc(C3CCCC3)nc21
23.2%	O=C(C1CCCC1)N1CCCC1c1nc(C2CCOCC2)no1 (stereo unspecified)
-1.1%	COc1ccc(C(=O)N2C[C@@H]3C[C@H](C2)c2ccc(NS(=O)(=O)c4cccc(C(F)(F)F)c4)c(=O)n2C3)cc1
0.8%	Cc1ccccc1C(=O)N1C[C@@H](F)C[C@H]1C(=O)N1CCCCC1
-15.9%	O=C(c1cc(F)ccc1F)N1CCCC2(C1)NC(=O)N(Cc1ccc(Cl)cc1)C2=O (stereo unspecified)
4.0%	COc1cc(C)sc1C(=O)NC1CC(c2cc(=O)[nH]c(C3CC3)n2)C1 (stereo unspecified)
6.9%	COc1cccc(CN2CCc3c(cc(C(=O)Nc4cc(OC)cc(OC)c4)n3C)C2)c1
0.7%	CSc1cccc(NC(=O)N[C@H]2CCN3C(=O)[C@H](Cc4ccc(F)cc4)NC(=O)[C@@H]3C2)c1
11.9%	N#CC1CCN(C(=O)c2nc(-c3ccc(F)cc3)c3cnccn23)CC1
2.6%[70.6 µM]	COCCOCC1(CNCC2CC2)C[C@@H](O)[C@@H](O)C1 (stereo partly specified)
1.1%	CC(=O)N(C1CCOCC1)C1CCN(C(=O)c2ccccc2)CC1
6.8%	COCCNC(=O)Cn1nc2c(cc1=O)CCCC2
-5.3%	COc1ccc(-c2ccc3c(c2)C(=O)N2CCN(C(=O)COc4ccccc4)C[C@@H]2C(=O)N3)cc1
-21.2%[70.6 µM]	CC(C)CCN1CCOc2cc(C(=O)Nc3ccccc3)ccc2C1
2.4%	O[C@@H]1CC(CNCc2cccnc2)(COc2ccc(C(F)(F)F)cn2)C[C@@H]1O (stereo partly specified)
-3.0%[70.6 µM]	COC1CCN(C(=O)Cc2c[nH]c3ncc(-c4ccccc4)cc23)CC1
-0.1%	O=C(Cn1cnnn1)N1CCC(c2nccn2Cc2cccnc2)CC1
3.9%[70.6 µM]	CCNC(=O)N[C@H]1[C@H](O)[C@H](O)C[C@@H]1C1CCCCC1

This is a subset; the hit share may differ from the screen's.
